MT1-MMP reporter: MT1-MMP gene expression reporter suppression – cell-based, luciferase reporter, luminescence (AID 618); MT1-MMP promoter luciferase reporter cells, luminescence; calls from a first round at 10 µM; hits with a dose series show EC50 in µM; 87,000 tested, 0.62% active;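 active = over half of the reporter light lost at 10 µM or EC50 under 50 µM; inactive = the rest and hits that failed the dose series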;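 note: actives suppress MT1-MMP promoter-driven transcription so potencies describe inhibitors; HT1080 fibrosarcoma cells; overnight exposure; toxic or luciferase-blocking compounds were not removed from the actives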
Hsc70: small molecules displacing fluorescent ligand from Hsc70 – biochemical, fluorescence polarization, primary screen (AID 568). Hsc70 fluorescence polarization, probe displacement; higher % means a stronger effect; strong numbers were not always called active. displacement, % at 20 µM, or IC50 in µM where a hit was titrated. 83,000 tested, under 10 active;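 active = displacement above 50% without optical interference and an IC50 on retest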;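 note: ATPase domain with a fluorescein-tagged ATP probe; 0% = vehicle and 100% = excess ADP; read after one hour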
WNV NS2B-NS3 inh: inhibitors of West Nile virus NS2B-NS3 protease; z-score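 (tested at a level between 10 and 100 µM)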; WNV NS2B-NS3 protease, fluorogenic substrate Ex360/Em465; active compounds read low; P06935; 65,000 tested, 0.18% active;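 active = z-score at -3 or under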;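 note: score is relative to mean and spread of the compound wells of a plate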
Target sequence (P06935 1371-1501 limits assumed): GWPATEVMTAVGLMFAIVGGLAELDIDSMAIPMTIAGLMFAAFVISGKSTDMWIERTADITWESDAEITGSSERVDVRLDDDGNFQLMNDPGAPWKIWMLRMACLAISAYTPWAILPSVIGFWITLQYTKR
Target sequence (P06935 1502-1679 limits assumed): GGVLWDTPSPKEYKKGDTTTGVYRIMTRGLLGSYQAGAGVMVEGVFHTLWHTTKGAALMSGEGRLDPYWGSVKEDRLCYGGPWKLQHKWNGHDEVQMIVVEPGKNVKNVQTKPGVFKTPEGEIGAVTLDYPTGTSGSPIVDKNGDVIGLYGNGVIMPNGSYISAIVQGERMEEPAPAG
Active calls of the source: *; i = inactive; nt = no result given; + = active, no number.

Molecule,MT1-MMP reporter,Hsc70,WNV NS2B-NS3 inh
CN(C)CCNC(=O)C12CC3(C)CC(C)(CC(C)(C3)C1)C2,i,-0.9%,-0.31
CN=c1scc(C)n1/N=C/c1ccc(O)cc1O,+,-2.4%,-0.75
CCCCOC(=O)C1=C(C)Nc2ncnn2C1c1cc(OC)ccc1OC (stereo unspecified),i,-3.9%,-0.68
COC(=O)c1ccc(CSc2nc(C(F)(F)F)c3c(c2C#N)CCC3)o1,i,-8.3%,0.37
CN(CCCNC(=O)c1cn(C)c2ccc(S(=O)(=O)N(C)C)cc2c1=O)c1ccccc1,i,-0.3%,0.76
COc1ccc(C2=NOC(C(=O)N3CCCCCC3)C2)cc1OC (stereo unspecified),i,-0.6%,-0.19
CCN(/N=C/c1cccs1)c1cc(=O)n(C)c(=O)[nH]1,i,0.5%,nt
S=c1sc2c(N3CCOCC3)ncnc2n1-c1ccccc1,i,3.5%,-0.53
Cc1cccc(OC(=O)c2cn(C)nc2C(F)(F)F)c1C,i,3.5%,nt
O=C(O)c1ccc(C2CCCCC2)cn1,i,-3.0%,1.7
COC(=O)Cn1c2ccc(OC)cc2c2nc3ccccc3nc21,i,31%,1.2
O=C(NCc1ccccc1)c1ccco1,i,1.3%,nt

Full records, looked up by structure. Order of values: MT1-MMP reporter	Hsc70	WNV NS2B-NS3 inh
O=C(O)c1ccc(C2CCCCC2)cn1 is listed with i	-3.0%	1.7
CN=c1scc(C)n1/N=C/c1ccc(O)cc1O is listed with +	-2.4%	-0.75

Next part
Molecule,MT1-MMP reporter,Hsc70,WNV NS2B-NS3 inh
C=CCOC(=O)C1=C(C)NC(=O)NC1c1cn(-c2ccccc2)nc1-c1cccs1 (stereo unspecified),i,-10%,0.58
Cc1cc(SCC#N)n2nc(C)c(-c3ccccc3)c2n1,i,-1.6%,-1.3
Cc1nn(C)c(C)c1S(=O)(=O)N1CCCC(C(=O)NC2CCCCC2)C1 (stereo unspecified),i,-8.4%,-0.42
COc1ccc(CC(=O)N2CCNC2=O)cc1,i,0.1%,-0.31
CCn1c(SCc2nc3ccccc3c(=O)[nH]2)nc2ccccc2c1=O,i,-1.5%,-0.61
Cc1nc2nc(SCC(N)=O)[nH]c2cc1Br,i,-2.6%,1.1
CC(=O)N1CCN(Cc2nc3cc(NC(=O)c4ccc(Cl)cc4)ccc3n2C)CC1,i,2.6%,nt
OC(COc1ccc(OCc2ccccc2)cc1)CN1CCOCC1 (stereo unspecified),i,-0.4%,-0.06
O=C(Nc1ccc(N2CCN(C(=O)c3ccccc3)CC2)c(Cl)c1)c1cccnc1,i,0.3%,nt
CCC(C)(C(=O)NC1CCCCC1)N(C(=O)c1ccccn1)c1ccc(C)cc1 (stereo unspecified),i,-2.3%,nt
CSc1nc(C)c(C(=O)Nc2ccccc2)c(C)c1C#N,i,6.1%,-0.15
CCOc1cc2[nH]c(=S)n(CCN3CCCCC3CC)c(=O)c2cc1OCC (stereo unspecified),i,3.9%,nt
CCOc1nc2c(c(=O)n(C)c(=O)n2C)n1Cc1ccccc1Cl,i,5.9%,1.1
COc1ccc(C2NCCC3(O)CCCCC23)c(OC)c1OC (stereo unspecified),i,-3.1%,0.22
Cc1occc1C(=O)N1N=C(C2CC2)CC1(O)C(F)(F)F (stereo unspecified),i,5.1%,nt
Cc1ccc(SCC(=O)NCCCN2CCOCC2)cc1,i,7.4%,-0.39
O=S1(=O)C=C(SCCN2CCCCC2)c2ccccc21,i,-2.1%,-0.56
O=C(Nc1ccncc1)C1CC1c1ccccc1 (stereo unspecified),i,-0.4%,nt
CCCc1nnc(NC(=O)CCC(=O)N2CCN(CCn3c(C)ccc3C)CC2)s1,i,-3.1%,-0.17
CN(Cc1ccccc1)C(=O)N[C@@H](Cc1ccccc1)C(=O)O,i,-0.2%,-0.24
COc1ccc(N2CCN(CCNC(=O)c3ccc(NC(=O)C4CCCO4)cc3)CC2)cc1 (stereo unspecified),i,-8.2%,-0.53
COc1cccc(C(=O)NCCC2=CCCCC2)c1,8.7µM*,-1.8%,nt
CCc1c(C(=O)NCc2ccc3c(c2)OCO3)[nH]c(C)c1C(C)=O,i,2.7%,-0.06
COc1cc(C(c2sc3nc(C)nn3c2O)N2CCC3(CC2)OCCO3)cc(OC)c1OC (stereo unspecified),i,1.5%,1.8
COC(=O)c1ccc(C2C(C(C)=O)=C(O)C(=O)N2CCO)cc1 (stereo unspecified),i,-1.4%,-1.2
CCOC(=O)Cc1csc(NC(=O)CC)n1,i,-2.4%,-0.62
Cc1ccc(N2CCN(C(=O)c3ccccc3F)CC2)c(C)c1,i,8.7%,-0.71
Cc1ccc(-c2noc(CN3CCCCC3)n2)cc1,i,-3.1%,nt
CCOC(=O)c1[nH]c(C)c(C(=O)Nc2ccccc2C)c1C,+,-3.8%,0.4
CN(C)CCCOC(=O)C1c2ccccc2Oc2ccccc21,i,5.0%,-0.01
CC1Cc2ccccc2N1C(=O)C1CCCCN1S(=O)(=O)c1ccccc1 (stereo unspecified),i,-0.5%,nt
Cc1ccc(C(=O)O)cc1-c1ccc(/C=C2/NC(=O)N(c3ccccc3)C2=O)o1,i,-4.5%,nt
CCCCN(CCNP(=O)(OCC)OCC)CP(=O)(OCC)OCC,i,0.7%,nt
Cc1cc(NS(=O)(=O)c2ccccc2)no1,i,3.5%,-0.04
CCCCn1c(SCc2ccc(C(=O)OC)o2)nc2cc(S(N)(=O)=O)ccc21,i,2.5%,-1.2
CCOC(=O)C1CCCN(Cc2cc(OC)c(O)c(OC)c2)C1 (stereo unspecified),i,-0.2%,-0.02
C=C(Br)CN1CCN(CC(=C)Br)CC1,i,-3.1%,1.3
CCNc1nc(SC(C(C)=O)C(C)=O)nc(N(C)C)n1,i,0.4%,-0.43
COCCCn1c(=O)c2ccccc2c2ccccc2c1=O,i,-1.3%,-0.46
O=C(NCCc1ccccc1)C1CCN(S(=O)(=O)c2ccccc2)CC1,i,1.1%,nt
Cc1nc2ccc(NC(=O)c3cccc(S(=O)(=O)N4CC(C)OC(C)C4)c3)cc2s1 (stereo unspecified),i,-1.2%,nt
CCOc1ccccc1NC(=O)COc1cccc(-n2cnnn2)c1,i,1.2%,-1.1
COc1ccc(C(=O)NCCn2cc(SCC(=O)NCc3ccco3)c3ccccc32)cc1,i,-5.7%,-0.28
C/C(=C\C(=O)O)C12CC3CC(CC(C3)C1)C2,i,5.3%,nt
CCOC(=O)Cn1ncc2c(=O)oc3ccccc3c21,i,-8.4%,-0.57
COCCNC(=O)c1csc2c1CCCC2,i,3.8%,1.6
CCOC(=O)CNC(=O)CNC(=O)c1ccc(OC)cc1,i,-4.9%,0.58
CCOC(=O)c1c(-c2ccc(C)o2)csc1NC(=O)CN1CCOCC1,i,5.4%,nt
CCOC(=O)N1CCN(C(=O)c2ccc3nc4ccc(Cl)cc4c(=O)n3c2)CC1,i,-10%,0.1
CC(C)n1nnnc1SCC(=O)NCc1ccco1,i,0.7%,0.22
C=CCn1c(SCC(=O)Nc2sccc2C(N)=O)nc2sc(CC)cc2c1=O,i,-0.2%,nt
CCc1ccc2[nH]c(=O)c(CN(CCN(CC)CC)C(=O)Nc3ccccc3OC)cc2c1,i,1.0%,0.25
c1ccc(-c2noc(-c3ccco3)n2)nc1,i,4.0%,0.8
COc1ccccc1NC(=O)c1c(C)cc(=O)oc1C,i,7.2%,0.26
COc1ccc(-n2c(Cc3cccn3C)nnc2SCC(=O)NCCc2ccccc2)cc1,i,-5.4%,0.37
CC(C)NC(=O)c1cc(C(=O)c2cc(Cl)ccc2O)coc1=N,i,-4.1%,-1.8
Cn1nc(CC(=O)N2CCN(c3ccccc3)CC2)c2ccccc2c1=O,i,0.1%,0.06
Cc1sc(NC(=O)CSc2nc(N)n(CC(=O)c3ccccc3)n2)c(C#N)c1C,i,-2.9%,0.23
Cc1cc(NC(=O)CCC(=O)N(CC(=O)NC2CCCC2)Cc2ccccc2Cl)no1,i,-1.0%,0.03
CC(=O)N(C(C)=O)C1=C(C#N)C2(CCCCC2)Cc2ccccc21,i,6.5%,nt

Remaining list, next part:
Molecule,MT1-MMP reporter,Hsc70,WNV NS2B-NS3 inh
O=C(Nc1cccc(C(F)(F)F)c1)c1cc(S(=O)(=O)N2CCCCC2)ccc1N1CCOCC1,i,1.0%,-0.31
CC1CN(c2nc3c(c(=O)n(Cc4ccc(Cl)cc4)c(=O)n3C)n2C)CC(C)O1 (stereo unspecified),i,4.1%,-0.52
COC(=O)C1=C(C)Nc2nnnn2C1c1cc(OC)ccc1OC (stereo unspecified),i,-1.6%,0.47
COc1ccc(NC(=O)CN2CCN(c3ccccc3F)CC2)cc1,i,8.7%,-0.85
COc1ccc(CCNC(=O)NC(C(F)(F)F)C(F)(F)F)cc1OC,i,2.8%,-0.84
CCCCNC(=O)C1CCCN1C(=O)Nc1cccc(OC)c1 (stereo unspecified),i,-6.8%,-0.62
CN(C)c1ccc2c(O)cc(=O)n(C)c2c1,i,-5.2%,0.8
Cc1ccc(NC2=NCC(=O)N2CCc2ccccc2)cc1C,i,1.3%,nt
COc1ccc(S(=O)(=O)N2CCN(c3ccc4nnc(-c5ccc(F)cc5)n4n3)CC2)cc1,i,1.0%,-1.6
O=c1[nH]c(N2CCN(c3ccccc3)CC2)nc2c1CCCC2,i,2.5%,nt
CCN(CC)S(=O)(=O)c1ccc(Nc2cc(C)nc3ncnn23)cc1,i,0.6%,0.05
Cn1c(Cc2csc(N)n2)nnc1SC/C=C/c1ccccc1,i,-2.1%,-1.5
CN1CCN(C(=O)C2(NC(=O)Nc3cccc(F)c3)CCCCC2)CC1,i,-1.1%,0.2
CC1=CC(C)(C)N(C(=O)c2ccccc2)c2ccc(C)cc21,i,-1.1%,nt
Cc1ccc(C(=O)NCCCNCCCN(C)C)cn1,i,13%,-0.72
CCOC(=O)C1CCN(S(=O)(=O)c2ccc(-n3cnnn3)c(C)c2)CC1,i,0.7%,0.49
Cc1c(C)c2cc(Cl)c(O)c(CN3CCN(C)CC3)c2oc1=O,i,4.2%,4.4
O=C(Nc1ccc(F)cc1)C1CCCN(S(=O)(=O)c2cccc3cccnc23)C1 (stereo unspecified),i,-1.6%,-0.8
Cc1nc2ccc(NC(=O)C3CCN(S(=O)(=O)c4cccs4)CC3)cc2s1,i,-0.9%,0.91
CCn1c(COc2ccccc2C)nnc1SCC(=O)N1CCCCC1,i,1.8%,-0.15
CCCCCC(=O)N1CCN(CCN=CC2=C(O)CC(c3ccc(OC)c(OC)c3)CC2=O)CC1 (stereo unspecified),i,-8.0%,0.25
CCC(C)(C)NC(=O)C(c1ccccc1)N(Cc1cccs1)C(=O)Cn1nnc2ccccc21 (stereo unspecified),i,3.0%,nt
Cc1c(C)n(Cc2ccccc2)c2ncnc(N)c12,i,2.3%,0.82
O=C(C1=COCCO1)N1CCN(S(=O)(=O)c2cccc(Cl)c2Cl)CC1,i,6.1%,-0.72

Given with two lines to a compound: three of the compounds above
Below each compound – MT1-MMP reporter | Hsc70 | WNV NS2B-NS3 inh
CCCCn1c(SCc2ccc(C(=O)OC)o2)nc2cc(S(N)(=O)=O)ccc21
 : i | 2.5% | -1.2
CCOC(=O)C1CCCN(Cc2cc(OC)c(O)c(OC)c2)C1 (stereo unspecified)
 : i | -0.2% | -0.02
C=C(Br)CN1CCN(CC(=C)Br)CC1
 : i | -3.1% | 1.3

Later entries.
Molecule,MT1-MMP reporter,Hsc70,WNV NS2B-NS3 inh
CN(C)c1ccc(C(=O)OCc2ccccc2)cc1,i,3.5%,nt
O=C1CC(C(=O)NCc2ccccc2)N=C(N2CCCCC2)N1 (stereo unspecified),i,0.1%,0.33
C=CCSc1nc(C)c(CC(=O)OCCCC)c(=O)[nH]1,i,-5.9%,-0.97
CCOc1ccc(C(C)=O)cc1CSc1nnc(-c2cccs2)n1CC1CCCO1 (stereo unspecified),i,0.6%,-1.1
O=C(Cc1cccs1)NCc1ccc(F)cc1,i,5.2%,-0.05
O=C(COC(=O)c1cncc(Br)c1)NCC1CCCO1 (stereo unspecified),i,15%,-0.39
O=S(=O)(c1ccc(N2CCN(c3ccc(F)cc3)CC2)cc1)N1CCCC1,i,-2.6%,-0.34
COc1cccc(C(=O)NCC2CCN(c3ccc(S(=O)(=O)N4CCOCC4)cc3)CC2)c1,i,1.0%,-1.4
Cc1cc(C(=O)OCCN2C(=O)c3ccccc3C2=O)c2ccccc2n1,i,-2.2%,nt
O=C(NCCc1c[nH]c2ccccc12)c1cnc2n(c1=O)CCS2,i,-0.9%,1.5
CCn1c(SCC(=O)Nc2ccccc2)nnc1-c1ccc(S(=O)(=O)N2CCOCC2)cc1,i,-0.7%,-1.3
Cc1cc(C(=O)N2CCN(c3ccccn3)CC2)no1,i,-4.1%,-0.51
CC1(C)CC(=O)C(C=NCCN2CCN(C(=O)c3ccccc3)CC2)=C(O)C1,i,-1.9%,-0.51
O=C(O)Cn1c(SCCOc2ccccc2F)nc2ccccc21,i,-0.3%,-0.5
CCOc1ccc(NS(=O)(=O)c2ccc3c(c2)CCN3C(=O)C2CCC2)cc1,i,6.2%,nt

Source: PubChem BioAssay (several laboratories)
